Marburg entry inh = blocks Marburg virus binding to or entry into cells | Marburg virus pseudotyped entry inhibition, cell reporter; control for the full effect not named in the record; about a third of the inactives were read at about 46 µM | Potency, µM (titrated, usually from 37.8 µM), inactives show at the highest dose activity change, negative = inhibition, actives largely listed as inhibitors | 1.8% of 300,000 active; active = well fitted inhibition curve with a large enough effect; inconclusive = small, poorly fitted or top-dose-only effect, or effect the other way; inactive = flat fitted curve, though single readings scatter; tested in HEK293 cells; about a fifth of its hits are not listed in these tables; also: % is scaled to controls: 0 for no effect and ±100 for the full control effect; luciferase read-out
2A StopGo = lowers the luciferase signal of an FMDV 2A StopGo reporter | human cells with a luciferase reporter of 2A StopGo recoding; control for the full effect not named in the record | Potency, µM (titrated, usually from 57.9 µM), inactives show top-dose signal change, negative = less light | 1.2% of 410,000 active | AID 1159524; active = well fitted falling curve with a large enough effect; inconclusive = small, poorly fitted or top-dose-only effect; inactive = no such curve, though single readings can be large or run the other way; tested in HEK293T cells; also: % is scaled to controls: 0 for no effect and ±100 for the full control effect; nearly all actives have a fitted effect of over 45% in size; luciferase light after 4 h
Cruzain inh noDet = blocks cruzain activity in detergent-free assay; P25779; purified cruzain, Z-FR-AMC fluorescence, no detergent; Potency, µM, for inactives: max response, negative = inhibition, usual class: inhibitors; 2.3% of 200,000 active; AID 1476;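 also: plate controls were enzyme without inhibitor for no effect and buffer without enzyme for full effect; nearly all actives have a fitted effect of over 40% in size; top concentration of the series not given in the record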
Target sequence (P25779 123-467 limits assumed): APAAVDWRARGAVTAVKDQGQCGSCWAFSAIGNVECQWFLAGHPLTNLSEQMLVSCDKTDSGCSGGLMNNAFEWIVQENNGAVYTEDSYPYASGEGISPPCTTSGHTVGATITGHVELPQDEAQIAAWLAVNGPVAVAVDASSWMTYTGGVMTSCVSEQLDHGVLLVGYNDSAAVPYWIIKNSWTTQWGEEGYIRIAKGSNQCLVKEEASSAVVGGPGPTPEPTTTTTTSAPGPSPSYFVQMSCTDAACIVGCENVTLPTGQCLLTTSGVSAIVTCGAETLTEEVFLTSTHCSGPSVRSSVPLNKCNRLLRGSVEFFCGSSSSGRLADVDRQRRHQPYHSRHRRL
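Purified cruzain at 1.5 nM, pre-incubated 15 min with compound at room temperature in 100 mM sodium acetate pH 5.5, 5 mM DTT, 0.00005% Triton X-100. Reaction started with 2 uM Z-FR-AMC; AMC fluorescence increase over 60 s gives rate.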
SARS PLpro yeast = SARS-CoV PLP inhibition in yeast; S. cerevisiae expressing SARS-CoV PLpro, growth rescue; control for the full effect not named in the record; Potency, µM (series often up to 32.9 µM), without a hit: at the top dose activity, positive = growth rescue; 0.19% of 330,000 active; active means well fitted rising curve with a large enough effect; inconclusive means small, poorly fitted or top-dose-only effect; inactive means no such curve, though single readings can be large or run the other way; also: 0% is about no effect; nearly all actives have a fitted effect of over 55% in size; growth read by luminescence after 48 h
NS1 inh = influenza NS1 inhibition | S. cerevisiae slowed by influenza A NS1, growth recovery by OD600 | Potency, µM (top dose mostly 46.1 µM), inactives show at the top dose activity, positive = more growth | 0.4% of 270,000 active | AID 2326; active means well fitted rising curve with a large enough effect; inconclusive means small, poorly fitted or top-dose-only effect; inactive means no such curve, though single readings can be large or run the other way; also: nearly all actives have a fitted effect of over 50% in size
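Read-out: OD600 growth recovery of NS1-expressing budding yeast. Cells grown overnight at 30C in -URA glucose medium, washed, resuspended and diluted 1:100 in 2% galactose assay medium, pH 6.0. Same strain lacking NS1 served as positive control.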
Cruzain inh Det = cruzain (T. cruzi) inhibition with detergent; P25779; 0.43% of 200,000 active; purified cruzain, Z-FR-AMC fluorescence, 0.01% Triton; Potency, µM, without a hit: max response, negative = inhibition, hits mostly inhibitors;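 also: plate controls were neutral wells for no effect and buffer without enzyme for full effect; nearly all actives have a fitted effect of over 40% in size; top concentration of the series not given in the record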
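Cruzain (1.5 nM) preincubated 15 min at RT with compound in 100 mM sodium acetate pH 5.5, 5 mM DTT, 0.01% Triton X-100. Reaction started with 2 uM Z-FR-AMC; AMC fluorescence (ex 360/em 450 nm) change over 60 s gave rate.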
RE007 growth inh = less growth of the S. pombe RE007 Vpr strain | 0.21% of 360,000 active | AID 651644 | S. pombe RE007 Vpr strain, BacTiter-Glo ATP luminescence, 24 h; control for the full effect not named in the record | Potency, µM (top dose mostly 92.2 µM), for inactives: at the highest dose activity change, negative = less growth; active = well fitted falling curve with a large enough effect; inconclusive = small, poorly fitted or top-dose-only effect; inactive = no such curve, though single readings can be large or run the other way;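 also: % is scaled to controls: 0 for no effect and ±100 for the full control effect; nearly all actives have a fitted effect of over 50% in size; the assay follows cell death caused by Vpr and the record does not say whether a fall means rescue or toxicity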
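Fission yeast RE007 carrying one integrated HIV-1 vpr copy, seeded at OD 0.01 in PMG+AL medium with 23 nL pinned compound. Grown 24 h at 30 degrees; viability read by BacTiter-Glo luminescence after 5 min.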
LASV entry inh = blocks Lassa virus binding to or entry into cells | Lassa virus pseudotype entry inhibition, cell reporter; control for the full effect not named in the record | Potency, µM (top dose mostly 37.9 µM), inactives show top-dose activity change, negative = inhibition, hits mostly inhibitors | 1.2% of 300,000 active | AID 540256; active means well fitted inhibition curve with a large enough effect; inconclusive means small, poorly fitted or top-dose-only effect, or effect the other way; inactive means flat fitted curve, though single readings scatter; tested in HEK293 cells; also: % is scaled to controls: 0 for no effect and ±100 for the full control effect; nearly all actives have a fitted effect of over 50% in size; luciferase read-out
The depositor's hits bear a star; u = inconclusive; x = not tested or not shown; & = joins results of further samples; [ ] = remark or other dose. Unless noted, calls follow the shape of the dose curve; as a rule, active = well fitted curve in the direction sought with a large enough effect; inconclusive = small, poorly fitted or top-dose-only effect, or another doubt; inactive = no such curve, though single readings can be large; an effect the other way counts as inactive or inconclusive. Potency is read from the fitted curve at half-maximal effect.

SMILES	Marburg entry inh	2A StopGo	Cruzain inh noDet	SARS PLpro yeast	NS1 inh	Cruzain inh Det	RE007 growth inh	LASV entry inh
O=[N+]([O-])c1cccc(Cl)c1NCCNS(=O)(=O)c1ccccc1	22%	15%	-9%	-3%	-80%	0.9%	5%	-10%
Cc1ccc(C)c(NC(=O)CSc2nc(C)cc(C)c2C#N)c1	-9%	x	7%	11%	6%	-3.0%	-1%	0%
CCOc1ccc(NC(=O)c2sc3nc(N4CCOCC4)c4c(c3c2N)CCCC4)cc1	x	-11%	x	-1%	5%	x	10%	x
OC(COc1ccccc1)CN1CCCCCC1 (centres undefined)	u	-9%	x	0%	x	x	-4%	-24%
COc1ccc(-c2noc(CN(C)C(=O)CCN3C(=O)[C@H]4CC=CC[C@H]4C3=O)n2)cc1	x	34%[activator]	x	0%	-12%	x	5%	x
Cc1cccc(CSCC(=O)NCc2ccc(S(N)(=O)=O)cc2)c1	-4%	-5%	x	-1%	x	x	-7%	u
CCC(CC)=N/N=C/c1c(O)n(CC)c2cc(C3=NNC(=O)CC3)ccc12	5%	-23%	u	4%	u	-17%	-6%	-12%
Cc1cc(=O)oc2c(C)c(OCC(=O)NCC3CCC(C(=O)O)CC3)ccc12 (centres undefined)	x	10%	x	8%	0%	x	-2%	x
CC(=O)c1cccc(N(CC(=O)Nc2ccc(F)cc2)S(C)(=O)=O)c1	-11%	32%[activator]	11%	2%	4%	-3.2%	-1%	8%
COc1cc(/C=C2/SC(=S)N(CCC(=O)Nc3ccc(C(=O)O)cc3)C2=O)cc(OC)c1OC	x	-9%	x	-3%	-2%	x	-5%	x
CCS(=O)(=O)N1CCC(C(=O)NCc2cccs2)CC1	u	-14%	9%	1%	-5%	1.7%	17%	0%
COc1cccc(-c2c(C(=O)N/N=C(\C)c3cccs3)nnn2-c2nonc2N)c1	x	-16%	x	-1%	u	x	15%	x
O=C(CSCc1cccc(F)c1)NCc1ccccc1	0%&0%[46.1 µM]	79%&53%[activator]	-14%	1%	x	-0.1%	7%	29%
CCn1cc(C(=O)NCCO)c(=O)c2cc(F)c(N3CCN(C)CC3)cc21	9%[46.1 µM]	3%	x	1%	4%	x	-11%	-2%[46.1 µM]
CCN(CC)CCNC(=O)CCCCn1c(=S)[nH]c2c([nH]c3ccc(OC)cc32)c1=O	3%	-2%	-1%	-4%	-2%	-6.9%	8%	14%
CCN(CC)c1ccc(NC(=O)c2cnn(CC)c2)cc1	u	5%	4%	0%	0%	-2.1%	-5%	27%
CC1=CCC(C(C)(C)NC(=O)c2ccccc2)C/C1=N\O (centres undefined)	-17%	-23%	x	x	6%	x	-22%	-11%
O=S(=O)(NCCNS(=O)(=O)c1ccccc1)c1ccccc1	13%	32%[activator]	-2%	-1%	5%	1.6%	12%	1%
Cc1ccc(NC(=O)N2CCC(C(=O)NCC(C)C)CC2)cc1	1%	-20%	11%	3%	6%	1.3%	8%	2%
CCOC(=O)c1c(C)c(C(=O)NCCc2ccc(S(N)(=O)=O)cc2)c(C)n1CC	-4%	-2%	-3%	2%	2%	1.0%	1%	0%
CCn1nc(NS(=O)(=O)c2ccc(C)cc2)c2cc3ccccc3nc21	10%[46.1 µM]	25%	x	-7%	-14%	x	12%	u
COC(=O)c1cccc(S(=O)(=O)N2CCC(c3nc4ccccc4o3)CC2)c1	-8%	x	-8%	3%	7%	1.0%	9%	-30%
COc1ccc(/C=N/n2cnnc2SCc2ccccc2)cc1	-17%[46.1 µM]	-11%	u	-1%	-31%	-4.4%	-15%	u
CCOc1ccc(N=Nc2c(C)noc2C)cc1	28%[46.1 µM]	-3%	x	-7%	x	x	2%	4%[46.1 µM]
CC1(C)CC(=O)C=C(NCC(O)c2ccccc2)C1 (centres undefined)	x	-5%	x	0%	-2%	x	15%	x
CC1=C(C(=O)OCC(C)C)C(c2ccc(F)cc2)NC(=O)N1 (centres undefined)	-14%	x	1%	2%	3%	-2.3%	-10%	-15%
CC(=O)N1CCN(C(=O)COc2ccc3oc4c(c3c2)CCCC4)CC1	12%	-1%	x	3%	x	x	-21%	3%[46.1 µM]
O=C(O)Cn1c(COc2ccc(Cl)cc2)nc2ccccc21	x	-12%	x	1%	1%	x	-5%	x
CCN(C(=O)c1sc2nc3n(c(=O)c2c1C)CCCC3)c1ccccc1F	x	-17%	4%	x	x	-3.9%	x	14%[46.1 µM]
Cc1c(NS(=O)(=O)N2CCCC2)c(=O)n(-c2ccccc2)n1C	15%	7%	8%	9%	3%	2.3%	-6%	20%
N#C/C(=C/c1ccc(Sc2nc3ccccc3[nH]2)o1)c1cccc(Br)c1	u	u	u	-2%	16%	-2.9%	-1%	-26%
Cc1ccc(Cn2ccc(NC(=O)c3cc(-c4ccc5c(c4)OCO5)on3)n2)cc1	-7%	-21%	u	14%	-1%	4.5%	-2%	3%
CCN(CC)S(=O)(=O)c1ccc(N2CCOCC2)c(NC(=O)c2ccc(F)cc2)c1	24%[46.1 µM]	-1%	x	2%	x	x	3%	-20%
COc1ccc(C)cc1NC(=S)N1CCOCC1	-15%[46.1 µM]	-7%	x	1%	3%	x	-1%	12%[46.1 µM]
O=C(CSc1ncn[nH]1)c1cc2ccccc2o1	u	39%[activator]	x	1%	14%	x	11%	-3%
Cc1cccc(NC(=O)CNC(=O)c2cccc(-n3cccc3)c2)c1C	7%	-9%	x	-3%	x	x	u	2%
O=c1c2ccccc2nc2oc3ccccc3n12	u	13%	x	-7%	-13%	x	-11%	u
CCOC(=O)c1c(S(=O)(=O)N2CCCC(C(=O)N3CCN(c4ccc(F)cc4)CC3)C2)c(C)n(C)c1C (centres undefined)	x	15%	u	x	x	0.2%	x	23%[46.1 µM]
COc1ccc(CNC(=O)Cn2c(=O)n(CC(=O)N3CCCCC3)c(=O)c3sccc32)cc1	x	-4%	x	0%	-1%	x	-12%	x
O=C1C(=O)c2ccccc2C(O)=C1CC=C(Cl)Cl	u	u	x	x	x	x	u	3.2µM*
CCOc1cc(/C=C2/NC(=O)N(CC(=O)OC)C2=O)ccc1OC	9%	-19%	x	1%	x	x	7%	-3%
CC(CNC(=O)COc1ccccc1)OC(=O)Nc1cccc(Cl)c1 (centres undefined)	u	-11%	7%	-15%	-17%	-4.3%	3%	-7%
O=C(O)CCS(=O)(=O)Cc1ccccc1Cl	-1%	x	-11%	3%	8%	0.9%	-7%	-18%
CC(C)c1nnc(-c2ccc(Cl)cc2)c(N(C)C)n1	-1%	-6%	-2%	-1%	-50%	2.4%	1%	u
OCCCc1nc2n(n1)C(c1cccc(Cl)c1)C=C(c1ccccc1)N2 (centres undefined)	x	-17%	-5%	x	x	-1.9%	x	4%[46.1 µM]
O=C(O)CSc1nnc(Cc2cccc3ccccc23)n1-c1cc(C(F)(F)F)cc(C(F)(F)F)c1	x	-20%	x	-1%	11%	x	-15%	x
S=C1NCCc2ccccc2C1c1ccccc1 (centres undefined)	10%[46.1 µM]	-6%	32µM*	-3%	-20%	u	7%	u
Cc1cc(OCC(=O)N2CCOCC2)cc2oc(=O)c3ccccc3c12	u	-15%	10%	10%	-10%	0.9%	-7%	1%
Cc1csc2c(=O)sc(NC(=O)c3ccc(F)cc3)nc12	5%[46.1 µM]	-7%	x	1%	-4%	x	-21%	2%
COc1cccc(CN(C)Cc2c(O)ccc3ccccc23)c1	-10%[46.1 µM]	12%	x	-3%	9%	x	-16%	-34%[46.1 µM]
C=C(C)CSc1nnc(-c2ccc(OC)cc2)n1N	15%	56%[activator]	-4%	3%	-6%	7.3%	-1%	9%
O=C(CSc1cn[nH]n1)Nc1cccc(C(F)(F)F)c1	-2%[46.1 µM]	-9%	x	0%	-3%	x	-4%	9%[46.1 µM]
CCCCOc1ccc(CN(CCO)CCO)cc1[N+](=O)[O-]	-35%	20%	-2%	6%	-4%	1.5%	3%	27%
Cc1cc(C)nc(Sc2ncnc3c2oc2ccccc23)n1	-3%&-3%	11%	4%	-7%	4%	-3.6%	3%	-3%
O=C(O)/C=C\c1cn(-c2ccccc2)nc1-c1cc2ccccc2o1	26%[46.1 µM]	37%[activator]	x	-3%	-5%	x	8%	x
Cc1cc(NC(=O)/C(C#N)=C/c2ccco2)n(-c2ccccc2)n1	11%[46.1 µM]	0%	-7%	16%	12%	-9.2%	-15%	4%
CC(=O)c1cccc(NC(=O)C2CC(=O)N(c3ccc4c(c3)OCCO4)C2)c1 (centres undefined)	0%	-10%	x	0%	x	x	-4%	12%
CCOC(=O)C(C)Sc1nc(-c2ccccc2)nc2ccc(F)cc12 (centres undefined)	-14%	0%	2%	3%	5%	-2.6%	4%	5%
CCCCCc1cc(=O)oc2c(C(CCN(CC)CC)c3cc(OC)c(OC)c(OC)c3)c(OC)cc(OC)c12 (centres undefined)	x	-28%	x	-1%	-8%	x	-1%	x
Cc1c(C)c2ccc(OCC(=O)NCCN3CCOCC3)cc2oc1=O	x	4%	x	8%	6%	x	-14%	x
The list continues:
SMILES	Marburg entry inh	2A StopGo	Cruzain inh noDet	SARS PLpro yeast	NS1 inh	Cruzain inh Det	RE007 growth inh	LASV entry inh
CCOc1ccc(N2C(=O)Nc3ccccc3C2(O)C(=O)N2CCN(c3ccccn3)CC2)cc1 (centres undefined)	-8%	6%	x	4%	-28%	x	-11%	-2%
Cc1sc2ncnc(Sc3nc4ccccc4s3)c2c1C	x	x	-16%	3%	-5%	0.4%	x	x
CCCNC(=O)NC1CCCc2ccccc21 (centres undefined)	x	-5%	x	2%	10%	x	3%	x
N#Cc1cc2c(nc1SCc1cccnc1)CCCCC2	-3%	x	-7%	x	-118%	-3.4%	1%	20%
Cc1oc(S(=O)(=O)N2CCOCC2)cc1C(=O)Nc1ccc(Cl)cc1	2%[46.1 µM]	7%	x	0%	1%	x	-8%	-11%
O=C(c1ccc(NS(=O)(=O)c2ccc(F)cc2)cc1)N1CCCCCC1	-16%[46.1 µM]	-16%	x	0%	x	x	1%	u

Bioassay records as filed in PubChem.
